RecA splice inh: blocks M. tuberculosis RecA intein splicing. cell-free RecA intein splicing, fluorescence. 290,000 tested, 0.75% active. inhibition, %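 (about 9 µM by stock and volumes)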; in the data active means inhibition above about 30%; inconclusive means no clear call, values can overlap the other calls;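 further: 0% = vehicle wells and 100% = reference inhibitor control wells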
Target sequence (P9WHJ3 whole entry, looked up, canonical isoform): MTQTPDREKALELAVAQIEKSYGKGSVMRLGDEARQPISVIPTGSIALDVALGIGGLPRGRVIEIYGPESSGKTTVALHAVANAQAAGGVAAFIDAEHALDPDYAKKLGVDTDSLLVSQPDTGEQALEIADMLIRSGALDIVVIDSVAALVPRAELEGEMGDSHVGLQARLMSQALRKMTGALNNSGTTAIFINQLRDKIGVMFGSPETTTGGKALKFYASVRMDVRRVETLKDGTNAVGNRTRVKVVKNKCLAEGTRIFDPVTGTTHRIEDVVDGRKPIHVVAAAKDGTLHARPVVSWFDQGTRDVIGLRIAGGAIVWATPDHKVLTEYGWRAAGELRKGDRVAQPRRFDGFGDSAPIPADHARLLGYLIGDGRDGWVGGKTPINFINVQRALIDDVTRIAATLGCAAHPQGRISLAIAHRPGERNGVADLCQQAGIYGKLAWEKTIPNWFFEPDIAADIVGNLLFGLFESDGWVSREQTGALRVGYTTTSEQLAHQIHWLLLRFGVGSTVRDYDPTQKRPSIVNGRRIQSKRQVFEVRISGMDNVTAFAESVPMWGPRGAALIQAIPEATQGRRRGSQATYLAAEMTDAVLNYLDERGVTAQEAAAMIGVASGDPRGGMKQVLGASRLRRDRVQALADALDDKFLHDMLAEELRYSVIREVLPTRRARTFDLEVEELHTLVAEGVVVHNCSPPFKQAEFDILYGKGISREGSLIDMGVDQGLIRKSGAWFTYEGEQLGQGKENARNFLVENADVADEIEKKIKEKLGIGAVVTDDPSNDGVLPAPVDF
Mtb bLac sens: beta-lactam sensitization of Mtb H37Rv; 330,000 tested, 0.27% active; M. tuberculosis H37Rv growth with meropenem, percent inhibition; hits of this screen are not shown here; inhibition, % at 25 µM;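 active means about 74% or more and at least 40 points above the plate without the antibiotic, then above 30% in a dose series; inconclusive means first-round hits that could not be retested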;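 further: growth measured after seven days incubation then overnight dye step; 0% = bacteria only wells and 100% = bacteria with antibiotic; twin plates without the antibiotic show which effects depend on it; some results filed as inactive read as strong as hits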
YopH PTP inh: blocks Yersinia enterocolitica YopH tyrosine phosphatase; AID 898; fluorescence Ex485/Em525; inhibition, %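 (about 10 µM by stock and volumes)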; 140,000 tested, 0.16% active;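 active means inhibition of 50% or more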;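 further: controls were vehicle for no effect and minimum signal wells for full effect; inactives centre near -20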
Mtb H37Rv: M. tuberculosis H37Rv growth inhibitors, H37Rv strain (AID 1626) | M. tuberculosis H37Rv growth inhibition; higher % means a stronger effect | inhibition, % at 10 µM, or IC50 in µM where a hit was titrated | 220,000 tested, 0.95% active;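 active means confirmed in a dose series; inconclusive means inhibition above 80% but not taken into the dose series; inactive means below 80% or under 30% at every dose of the series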;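 further: bacteria incubated seven days before Alamar blue readout; 0% = bacteria only wells and 100% = bacteria with antibiotic wells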
Arbovirus inh: arbovirus infection inhibition; arbovirus infection cell-based antiviral screen; inhibition, % at 10 µM; 200,000 tested, 0.37% active; AID 1251;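 active means inhibition from about 30%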;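 further: bluetongue infection of BSR cells; cell survival read as ATP light after 72 h; 0% = infected wells without compound and 100% = uninfected wells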
Arbovirus inh repeat: also measured in Arbovirus inh; calls as there; inhibition, %; measured here: 10K subset replicate screen; many hits read low in the repeat;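 first of two repeat runs on a subset; 0% = infected and 100% = uninfected wells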
The depositor's hits bear a star; u = inconclusive; x = no result given; & = joins results of further samples.

SMILES	RecA splice inh	Mtb bLac sens	YopH PTP inh	Mtb H37Rv	Arbovirus inh	others
O=C(NC(=S)Nc1ccc(CN2CCOCC2)cc1)c1ccc(-c2ccc(Br)cc2)o1	0.2	72	x	43%	x
COC(=O)CNC(=O)CSc1nc(N)cc(=O)[nH]1	-2.8	-1	-5	-5%	3
COc1cccc(NC(=S)Nc2cc(C(=O)O)ccc2N2CC3CC(C2)c2cccc(=O)n2C3)c1 (stereo unspecified)	x	9	x	-11%	-2
CC(=O)NCCC(=O)N1CCCC(CNC(=O)c2ccc(-c3ccccc3)cc2)C1 (stereo unspecified)	-0.6	-4	x	1%	19
Cc1ccsc1/C=c1\sc2ncnn2c1=O	5.0	u	-38	-6%	-2
Nc1cccc(C(=O)Nc2ccc3nc(-c4cccnc4)[nH]c3c2)c1	0.0	-6	-25	-5%	-3	Arbovirus inh repeat=-1
CCCc1nnc(NC(=O)NCCN2C(=O)C3C4C=CC(C4)C3C2=O)s1 (stereo unspecified)	2.5	-5	-22	-8%	2	Arbovirus inh repeat=16
Cc1nn(C)c(C)c1NS(=O)(=O)c1ccc(Cl)cc1	-1.2	1	x	x	x
CC(C)[C@]12O[C@H]1[C@@H]1O[C@]13[C@]1(O[C@H]1C[C@H]1C4=C(CC[C@@]13C)C(=O)OC4)[C@@H]2O	16	-1	x	-6%&-4%	-1
CC1Cc2cc(S(=O)(=O)NCc3ccccc3)ccc2N1C(=O)C1CC1 (stereo unspecified)	1.4	2	x	x	x
CSCCC(NC(=O)c1cccc(C)c1)C(=O)OCC(=O)NC(=O)c1cccn1C (stereo unspecified)	0.2	0	-3	-13%	-1
Cc1c(C(=O)NCc2ccc3c(c2)OCO3)oc2ccc(Br)cc12	15	-11	-14	-13%	8
Cc1nn(C)cc1CN(C)C(=O)c1nn2c(c1Br)NC(c1cccs1)CC2C(F)(F)F (stereo unspecified)	0.5	-8	x	5%	3
COc1cccc(NC=C2C(=O)OC3(CCCCC3)OC2=O)c1	1.2	9	-41	6%	-15	Arbovirus inh repeat=-11
CC(Sc1nnc2c(n1)[nH]c1ccccc12)C(=O)NC1CCCCC1 (stereo unspecified)	4.0	3	x	x	x
CC(C)OCCCn1c(SCC(=O)N2CCCC2=O)nc2ccccc2c1=O	-3.3	3	x	x	x
NC(=O)SCC(=O)Nc1cccc(Cl)c1	0.2	-5	-6	-12%	8
COc1ccc(-c2c(C)n([O-])c3c([n+]2=O)CCCC3)cc1OC	0.9	-5	x	-1%	3
N#Cc1nc(-c2ccco2)oc1N1CCN(C(c2ccccc2)c2ccccc2)CC1	3.3	3	-15	-6%	2
CCCCC(=O)Nc1sc2c(c1-c1nc3ccccc3s1)CCN(C(C)=O)C2	x	x	-31	6%	-40
COc1ccc(OC)c(NC(=O)Nc2cc(C(=O)O)ccc2C)c1	-0.8	0	x	-4%	8
O=c1[nH]n(-c2ccc(Cl)cc2)c2ncccc12	1.7	-31	-31	-9%	1
Cc1ccc(CNC(=O)CCCC(=O)c2ccccc2)cc1	-4.7	4	x	x	x
COc1ccccc1C(=O)Nc1nc(N)n(-c2ccccc2)n1	-2.0	7	-8	-9%	6
COc1ccc(/C=N/NC(=O)CCc2n[nH]c(=O)[nH]c2=O)cc1O	0.2	-4	-13	6%	-15
Cc1cc(N2C(=O)C=CC2=O)c([N+](=O)[O-])cc1C	2.9	1	-17	-2%	0
CN(CC(=O)Nc1ccc(Cl)cc1)C(=O)CNC(=O)c1ccc(Br)o1	-1.0	-4	x	x	x
COC(=O)C(C)Sc1nc(N)c(NC(=O)c2ccco2)c(=O)[nH]1 (stereo unspecified)	-8.1	-6	x	-15%	0
CCOC(=O)C1(Cc2ccccc2)CCN(Cc2cc(=O)c3ccccc3[nH]2)CC1	-1.4	9	x	4%	-1
O=C1c2ccccc2C(=O)N1CCC(O)C[N+](=O)[O-] (stereo unspecified)	-2.1	4	x	0%	5
COc1cc(C(=O)NCCOc2cc(C)cc(C)c2)c(Br)c(OC)c1OC	-4.0	3	-36	4%	-25
Clc1ccc(-c2csc(N3CCc4ccccc4C3)n2)cc1	-2.0	7	-33	-1%	4
C=CCSc1nc2c(c(-c3ccsc3)c1C#N)CN(C)CC2	22	x	x	6%	x
CCOC(=O)C1CCCCN1S(=O)(=O)c1ccc2c(c1)CC(C)N2C(=O)C1CCC1 (stereo unspecified)	-1.0	-1	x	x	x
CCOc1nc(NC(C)C)nc(N2CC3CC(C2)c2cccc(=O)n2C3)n1 (stereo unspecified)	2.0	-2	x	0%	4
COc1ccc(C(CNC(=O)c2oc3ccc(OC)cc3c2C)N2CCCC2)cc1 (stereo unspecified)	7.6	-6	x	x	x
Cc1ccc(C(F)(F)F)cc1NC(N)=S	-1.6	3	x	10%	8
Cc1nc(NC(=O)/C=C/c2ccc(F)cc2)sc1C(=O)N(C)C	0.2	-5	-18	-6%	0
COC(=O)c1cncn1C(C)c1ccccc1 (stereo unspecified)	0.0	-11	-4	-19%	0
CC(=O)c1cccc(N2C(=O)C3C(C(=O)Nc4cc(C)on4)C4(C)C=CC3(O4)C2C(=O)NC(C)(C)C)c1 (stereo unspecified)	-1.0	-1	x	-5%	8
FC(F)(F)c1cccc(-c2nnc3ccc(C(F)(F)F)cn23)c1	0.3	8	-38	-1%	8
CCNC(=O)OCC(CC)NC(=O)OCC(C)C (stereo unspecified)	-1.6	-2	-6	3%	2
O=C(CCN1CCN(c2ccc(F)cc2)CC1)Nc1ccc(F)cc1	-2.4	15	-21	-9%	-2
COCCN1C(=O)c2ccc(C(=O)O)cc2C1=O	0.3	5	-22	-5%	11
CCCc1nnc2c(N(C)S(=O)(=O)c3ccc(C)cc3)nc3ccccc3n12	-2.0	2	-17	0%	-3
O=C(NCCc1ccccc1F)c1ccc2c(c1)OCCO2	0.5	8	x	x	x
O=[N+]([O-])c1ccc2nccn2c1	1.5	5	-3	-7%	3
CCOC(=O)c1nn(-c2ccc(F)cc2)c2nc(-c3ccccc3)c(C#N)c(=O)n12	4.9	5	-38	5%	0
CCCC12CN3CCN(C1)CC(CCC)(C3)C2=O	-2.3	-2	x	-7%	x
CCOC(=O)/C(C(N)=NCC(C)C)=C(/O)c1ccccc1	-1.7	-1	-11	-9%	5
O=C(Nc1cc(C(F)(F)F)ccc1N1CCCC1)c1ccc2c(c1)OCO2	x	4	-10	-7%	-8
CCCCOC(=O)c1cc(=O)[nH]c2ccccc12	-0.1	x	-15	-3%	-4
COC(=O)c1ccccc1NC(=O)c1cccc(NC(=O)CSCc2ccccc2)c1C	-4.6	4	-31	-10%	6
O=C(NNC(=O)c1cccnc1SCc1cccc([N+](=O)[O-])c1)c1ccccn1	-13	4	-27	8%	-32
O=C(CSCc1cccc(Br)c1)N1CCOCC1	-5.0	7	-12	-6%	4
COC(/C=C/Nc1ccc(Cl)cc1)=C(C#N)C#N	1.2	-3	x	-3%	1
CCCc1nc2ccccc2n1CCc1ccccc1	-1.9	-4	-25	3%	1
COc1ccc(CNC(=O)c2cc3ccccc3oc2=O)cc1	5.8	36	x	x	x
O=C(Cc1ccc([N+](=O)[O-])cc1)Nc1ccon1	0.6	0	x	x	x
CC(CN1C(C)CCCC1C)OC(=O)c1ccc(F)cc1 (stereo unspecified)	-2.6	5	x	x	x
(next part)
SMILES	RecA splice inh	Mtb bLac sens	YopH PTP inh	Mtb H37Rv	Arbovirus inh	others
CN(CC(=O)N1CCCCCC1)S(=O)(=O)c1cccc2cccnc12	x	-2	-56	-3%	11	Arbovirus inh repeat=6
CCN1/C(=C2\C(=O)N(C)C(=S)N2C)C=Cc2cc(OC)ccc21	-2.7	11	14	2%	-9
CCOc1ccc(S(=O)(=O)NCC(=O)N(C)Cc2cccnc2)cc1	-0.8	-8	-3	-6%	0
CCOc1ccc(CSC2=NCCN2)cc1Cl	2.4	-3	-5	-14%	-17
COC(=O)c1sccc1-c1ccc(C(N)=O)o1	-1.0	-2	x	-10%	3
CCc1cccc(C)c1N1C(=O)CN(Cc2ccccc2)C1=S	6.1	9	x	x	x
O=C(Cc1cccs1)N/N=C/C=C/c1ccco1	2.7	-1	-11	1%	6
CS(=O)(=O)c1ccc(-n2nnc3ccccc32)c([N+](=O)[O-])c1	-2.6	-4	x	x	x
COc1ccc(C(=O)Nc2nc3c(s2)CCCC3)cc1S(=O)(=O)N1CCCc2ccccc21	0.3	76	-5	u	-24
Cc1ccc(NC(=O)c2cccc3c2C(=O)N(C2CCCCC2)C3)c(Cl)c1	18	4	x	x	x
CCCN(CC(=O)Nc1ccccc1C)C(=O)c1ccc(N2CCCCCC2)c([N+](=O)[O-])c1	5.2	-11	x	x	x
O=C(NCc1cccnc1)Nc1cccc(Cl)c1Cl	0.9	2	x	x	x
COc1ccc(C(=O)O/N=C(\N)c2ccccc2)cc1	-1.8	4	x	x	x
Nc1ccnc(=O)[nH]1	-1.2	2	x	x	x
Cc1cccc(N/C(=N\S(=O)(=O)c2ccccc2)C(F)(F)F)c1	-2.9	-1	-20	x	8
O=C(O)C(Cc1ccccc1)N1C(=O)/C(=C/c2cccc3ccccc23)SC1=S (stereo unspecified)	x	u	3	-9%	-10
COC(=O)Cn1ccc2cc(S(=O)(=O)N3CCCCCC3)ccc21	3.3	-13	x	x	x
COc1c(O)ccc(/C=N\NC(=O)c2ccc3c(c2)OCO3)c1[N+](=O)[O-]	0.0	-5	x	x	x
CCc1nc(NCc2ccco2)c2oc3ccccc3c2n1	-2.6	1	-43	-4%	7
Cc1ccc(NC(=O)c2ccc(OC(=O)COc3cccc(Cl)c3)cc2)cc1	1.5	-4	-7	1%	-3
COc1c(O)c(O)c2oc(-c3ccccc3)cc(=O)c2c1OC	x	-2	x	8%	0
CCN1CCN(c2ccc(S(=O)(=O)N3CCCCC3)cc2NC(=O)c2cccc(F)c2)CC1	-0.8	-5	x	x	x
CN(c1ccccc1)S(=O)(=O)c1ccc(C(=O)N2CCc3ccccc3C2)cc1	0.4	-13	x	8%	1
COc1ccc(OC(C)C(=O)N(C)Cc2nc(-c3cccc(C)c3)no2)cc1 (stereo unspecified)	3.6	-2	x	x	x
COc1ccc(-n2c(O)c(C(C)=NCc3ccc4c(c3)OCO4)c(=O)[nH]c2=O)cc1	-7.1	-7	x	0%	x
CCN(CC)C(=O)Oc1ccc2cc(Br)ccc2c1	7.8	67	-13	18%	6
O=[N+]([O-])c1cc(C=Nc2ccc3ccccc3c2)ccc1Br	9.2	96	-17	5.9µM*	-9
O=C(COc1coc(CN2CCN(c3ccc(F)cc3)CC2)cc1=O)NCC1CCCO1 (stereo unspecified)	-0.5	-4	x	x	x
Brc1ccc(-c2nnc3ccc(Nc4ccccc4)nn23)cc1	-4.8	-4	-20	-6%	9
CC1CCN(C(=O)CCCOc2cc(=O)n(C)c3ccccc23)CC1	-2.5	-22	10	-6%	-14
NC(=O)Nc1ccc(C(=O)OCC(=O)Nc2ccc(Cl)cn2)cc1	0.5	92	x	-9%	x
CC1C(=O)Nc2ccccc2N1C(=O)c1ccc(Cl)cc1 (stereo unspecified)	-0.8	6	x	x	x
O=[N+]([O-])c1ccc2c(c1)C(N1CCOCC1)/C(=C/COc1ccc3ccccc3c1Br)O2 (stereo unspecified)	x	-5	-22	3%	11
CN(C)c1ccc(C2Nc3ccccc3C(=O)N2CCCN2CCOCC2)cc1 (stereo unspecified)	-0.8	-9	x	-4%	x
Cc1ccccc1-c1nc(CS(=O)(=O)CC(=O)NCCCN2C(C)CCCC2C)c(C)o1 (stereo unspecified)	1.6	5	-18	-3%	-17
Cc1ccc(C(=O)CNc2ccc(Cl)cc2)cc1	7.8	2	x	-1%	-21
Cc1ccccc1OCc1nc2ccccc2c(=O)n1NC(=O)c1ccco1	-1.0	0	-41	-2%	5

Structures listed so far with an aryl thioether with sulfur outside any ring (six):
SMILES	RecA splice inh	Mtb bLac sens	YopH PTP inh	Mtb H37Rv	Arbovirus inh	others
COC(=O)CNC(=O)CSc1nc(N)cc(=O)[nH]1	-2.8	-1	-5	-5%	3
CC(Sc1nnc2c(n1)[nH]c1ccccc12)C(=O)NC1CCCCC1 (stereo unspecified)	4.0	3	x	x	x
CC(C)OCCCn1c(SCC(=O)N2CCCC2=O)nc2ccccc2c1=O	-3.3	3	x	x	x
COC(=O)C(C)Sc1nc(N)c(NC(=O)c2ccco2)c(=O)[nH]1 (stereo unspecified)	-8.1	-6	x	-15%	0
C=CCSc1nc2c(c(-c3ccsc3)c1C#N)CN(C)CC2	22	x	x	6%	x
O=C(NNC(=O)c1cccnc1SCc1cccc([N+](=O)[O-])c1)c1ccccn1	-13	4	-27	8%	-32

This is a subset; the hit share may differ from the screen's.
